# High-throughput results as filed in PubChem BioAssay.
# HIV Env fusion – blocks HIV Env-driven cell-cell fusion. AID 651610. 1.1% of 360,000 active. HeLa-JRFL Env/CEM21 cell fusion, luciferase. inhibition, % at 12.3 µM;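 active = mean replicate inhibition score of at least 50 and every replicate individually at or above 50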;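 also: 0% = plate neutral controls and 100% = maraviroc near 300 nM; one replicate is shown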
# * marks the source's active call; other numbers are inactive results; [ ] = dose if it differs, or a comment.
SMILES,HIV Env fusion
Cc1ccccc1S(=O)(=O)N1C[C@@H](O)COC[C@H]2O[C@H](CC(=O)O)CC[C@@H]21,-9[16.7 µM]
COC(=O)C[C@H]1CC[C@H]2[C@H](COc3ccc(NS(=O)(=O)c4ccc(F)cc4)cc3C(=O)N2C)O1,-21[16.7 µM]
CC(C)NC(=O)N(C)C[C@@H]1OCCCC[C@H](C)Oc2ccc(NC(=O)Cc3ccccc3)cc2C(=O)N([C@H](C)CO)C[C@@H]1C,-19[16.7 µM]
CCOC(=O)CN1C(=O)N(c2ccc(OC)cc2)[C@H]2CC3c4ccccc4C[C@]3(C)[C@@H](C(=O)N(C)C3CCCCC3)C[C@H]21 (stereo partly specified),21
C[C@@H](NC(=O)N(C)C[C@H]1OCc2ccccc2-c2c(n(C)c3ccccc23)C(=O)N([C@@H](C)CO)C[C@@H]1C)c1ccccc1,27[16.7 µM]
CON(Cc1ccccc1)S(=O)(=O)c1ccccc1Br,-10
O=C(C[C@@H]1CC[C@H](NC(=O)CC2CC2)[C@H](CO)O1)NCc1ccc(Cl)cc1,-10[16.7 µM]
CO[C@H]1CC[C@@H]2CCOc3ccc(C#N)cc3C(=O)N(C)C[C@@H](OC)[C@@H](C)C(=O)N(C)C[C@H]1O2,6[16.7 µM]
COc1ccc(S(=O)(=O)N(C)C[C@H]2OCCCC[C@@H](C)Oc3ccc(NS(=O)(=O)c4cn(C)cn4)cc3C(=O)N([C@@H](C)CO)C[C@H]2C)cc1,-32[16.7 µM]
O=C1C=CCCN1C(=O)/C=C/c1cccc(Br)c1,-109[16.7 µM]
CO[C@H]1CN(C)C(=O)c2cc(NS(=O)(=O)Cc3ccccc3)ccc2OC[C@@H](C)NC[C@@H]1C,-13[16.7 µM]
C[C@H]1CN([C@@H](C)CO)C(=O)Cc2cc(NC(=O)Cc3cn(C)c4ccccc34)ccc2O[C@@H]1CN(C)C(=O)Nc1ccc(F)cc1,5[16.7 µM]
CN1C(=O)c2cc(NC(=O)c3ccc(F)c(F)c3)ccc2OC[C@H]2O[C@H](CC(=O)N3CCOCC3)CC[C@H]21,12[16.7 µM]
Cc1ccccc1-c1cccc2[nH]c3c(c12)CCN1C(=O)[C@H]2[C@H](C)ON(C)[C@H]2C[C@@H]31,-6
COc1ccccc1CNC(=O)C[C@H]1C[C@H]2c3cc(NC(=O)c4cccnc4)ccc3O[C@H]2[C@@H](CO)O1,-1[16.7 µM]
CC(C)C#Cc1ccc2c(c1)O[C@H](CN(C)C(=O)C1CCC1)[C@@H](C)CN([C@@H](C)CO)S2(=O)=O,11[16.7 µM]
CO[C@@H]1CN(C)C(=O)c2cc(NC(=O)c3ccccc3F)ccc2OC[C@@H](C)N(C(C)=O)C[C@@H]1C,13[16.7 µM]
Nc1[nH]c(C(=O)c2ccc(Cl)cc2)c(-c2ccc(Br)cc2)c1C(=O)NCc1ccc(Cl)cc1Cl,-5
CO[C@H]1CN(C)C(=O)c2ccc(NS(=O)(=O)CC(F)(F)F)cc2OC[C@H](C)N(Cc2cccnc2)C[C@@H]1C,3[16.7 µM]
COc1ccccc1C#Cc1ccc([C@H]2[C@H](C#N)N(C(=O)C3CCCC3)[C@H]2CO)cc1,74*[16.7 µM]
CCCCCCCCN1C(=O)[C@@H](CC(=O)NCC23CC4CC(CC(C4)C2)C3)C[C@@]2(C(=O)OC)C1=C[C@H](C1CCCC1)O[C@@H]2C,1
CC(=O)c1ccc(N2CCN(C(=O)c3ccc4c(=O)[nH]c5c(C(=O)NC6CCCC6)sc(=S)n5c4c3)CC2)cc1,5
CC(C)(C)[C@@H]1C=C(C(=O)NCc2nc3ccccc3[nH]2)O[C@H](OCc2ccc(CO)cc2)C1,2[16.7 µM]
O=C(NCC1CC1)[C@@H]1[C@@H](CO)[C@@H]2Cn3c(ccc(-c4cccc(F)c4)c3=O)[C@@H]2N1CC1CCOCC1,14[16.7 µM]
C[C@@H]1CN([C@H](C)CO)C(=O)c2ccccc2-c2ccccc2CO[C@H]1CN(C)C(=O)[C@@H](Cc1ccccc1)N(C)C,-15[16.7 µM]
N#Cc1ccc(S(=O)(=O)N2CCCc3nc(-c4ccccc4)ccc32)cc1,-11
CO[C@@H]1CC[C@@H]2CCN(C)C(=O)[C@@H](C)CN(C)C(=O)c3cccc(C#N)c3OC[C@H]1O2,15[16.7 µM]
CO[C@H]1CN(C)C(=O)c2cc(NS(=O)(=O)c3cn(C)cn3)ccc2OC[C@@H](C)N(CC2CC2)C[C@@H]1C,19[16.7 µM]
Cc1ccc(NC(=O)N2CC(C)OC(C)C2)cc1[N+](=O)[O-] (stereo unspecified),-3
C[C@@H]1CN([C@@H](C)CO)C(=O)c2c(c3ccccc3n2C)-c2ccccc2CO[C@@H]1CN(C)S(=O)(=O)Cc1ccccc1,-12[16.7 µM]

# Another view of some results above.
> CCCCCCCCN1C(=O)[C@@H](CC(=O)NCC23CC4CC(CC(C4)C2)C3)C[C@@]2(C(=O)OC)C1=C[C@H](C1CCCC1)O[C@@H]2C
  HIV Env fusion = 1

> CC(=O)c1ccc(N2CCN(C(=O)c3ccc4c(=O)[nH]c5c(C(=O)NC6CCCC6)sc(=S)n5c4c3)CC2)cc1
  HIV Env fusion = 5

> CC(C)(C)[C@@H]1C=C(C(=O)NCc2nc3ccccc3[nH]2)O[C@H](OCc2ccc(CO)cc2)C1
  HIV Env fusion = 2[16.7 µM]

> O=C(NCC1CC1)[C@@H]1[C@@H](CO)[C@@H]2Cn3c(ccc(-c4cccc(F)c4)c3=O)[C@@H]2N1CC1CCOCC1
  HIV Env fusion = 14[16.7 µM]

# More structures:
SMILES,HIV Env fusion
CO[C@@H]1CN(C)C(=O)c2ccc(NC(=O)c3cc(C)on3)cc2OC[C@@H](C)N(C(=O)C2CCC2)C[C@H]1C,-50[16.7 µM]
CC(C)[C@@H]1COCn2nncc2CC[C@H](Cc2ccccc2)C(=O)N1,-6[16.7 µM]
CCC(=O)N1C[C@@H](O)COC[C@@H]2O[C@@H](CC(=O)NCc3cc(F)cc(F)c3)CC[C@H]21,-15[16.7 µM]
CCCN1[C@@H]2c3ccc(-c4ccccc4OC)c(=O)n3C[C@H]1[C@H](CO)[C@H]2C(=O)NCc1ccccn1,2[16.7 µM]
C[C@H]1CN([C@@H](C)CO)C(=O)c2cc(NC(=O)Cn3cnnn3)ccc2O[C@H]1CN(C)Cc1ccc(C(F)(F)F)cc1,3[16.7 µM]
CCCN1[C@@H]2Cn3c(ccc(C4=CCCCC4)c3=O)[C@H]1[C@@H](C(=O)N1CCc3ccccc3C1)[C@@H]2CO,6[16.7 µM]
C[C@@H]1NS(=O)(=O)c2c(F)cccc2O[C@@H]1c1ccccc1,14
CO[C@@H]1CN(C)C(=O)c2ccc(NC(=O)c3cnccn3)cc2OC[C@H](C)N(C)C[C@@H]1C,17[16.7 µM]
Cc1ccc(C2c3c(n[nH]c3C)C(=O)N2Cc2ccccc2)cc1 (stereo unspecified),12
COc1cccc(S(=O)(=O)Nc2ccc3c(c2)[C@H]2C[C@@H](CC(=O)N4CCCCC4)O[C@@H](CO)[C@H]2O3)c1,2[16.7 µM]
O=Cc1coc([B-](F)(F)F)c1,-9
CN(C)C(=O)c1ccc(-c2cccc(-c3nc(C(=O)NC4CCCC4)cc4c3[C@@H](CCO)N([S@](=O)C(C)(C)C)C4)c2)cc1,1[16.7 µM]
Nc1ccn([C@@H]2O[C@H](C(=O)N[C@H](Cc3ccccc3)C(=O)NCC(F)(F)F)[C@@H](O)[C@H]2O)c(=O)n1,-23
C[C@@H]1CN([C@H](C)CO)C(=O)c2cc(NC(=O)Nc3cccc4ccccc34)ccc2O[C@H]1CN(C)Cc1ccncc1,-1[16.7 µM]
CC(C)(C)[S@@](=O)N1Cc2cc(C(=O)NCc3ccncc3)nc(-c3cccc(-c4ccncc4)c3)c2[C@H]1CCO,10[16.7 µM]
CC(C)NC(=O)Nc1ccc2c(c1)C(=O)N([C@@H](C)CO)C[C@H](C)[C@H](CN(C)C(=O)NC1CCCCC1)OCCCC[C@@H](C)O2,15[16.7 µM]
O=C1Nc2c(Cl)cc(Cl)cc2C12Nc1ccccc1S2 (stereo unspecified),55*
COCC(=O)N1CCC2(CC1)CN(C(=O)c1ccccn1)[C@@H](CO)c1c2c2ccc(OC)cc2n1C,-15[16.7 µM]
CO[C@H]1CN(C)C(=O)c2ccc(NC(=O)C3CC3)cc2OC[C@H](C)N(Cc2cc(F)ccc2F)C[C@H]1C,30[16.7 µM]
C[C@@H]1CN([C@H](C)CO)C(=O)Cc2cc(NC(=O)Nc3ccc(F)cc3)ccc2O[C@H]1CN(C)S(=O)(=O)c1cn(C)cn1,9[16.7 µM]
C[C@H]1CN([C@@H](C)CO)C(=O)c2ccccc2-c2ccccc2CO[C@H]1CN(C)S(=O)(=O)c1ccccc1F,50[16.7 µM]
Cc1[nH]c2ccccc2c1CC(=O)Nc1ccc(Oc2cccnc2)cc1,-82
CCC(=O)N1C[C@H](C)[C@H](OC)CN(C)C(=O)c2ccc(NC(=O)c3ccccc3)cc2OC[C@H]1C,5[16.7 µM]
COc1ccc(-c2cn(CC(=O)N3CCC4(CC3)C(=O)NCN4c3ccccc3)nn2)cc1OC,12[16.7 µM]
CCNC(=O)[C@H]1[C@H](CO)[C@H]2Cn3c(cccc3=O)[C@H]2N1CC1CCCCC1,5[16.7 µM]
COc1ccc2c3c(n(C)c2c1)[C@@H](CO)N(C(=O)c1cnccn1)CC31CN(C(=O)c2cnccn2)C1,31[16.7 µM]
O=C(C[C@H]1CC[C@H]2[C@@H](COC[C@H](O)CN2Cc2nccs2)O1)NCc1ccc(F)cc1,-3[16.7 µM]
CN1NC(=O)c2ccccc2NC1=S,16
COc1ccc(NC(=O)N(C)C[C@@H]2Oc3ccc(NS(=O)(=O)c4ccc(C)cc4)cc3C(=O)N([C@@H](C)CO)C[C@H]2C)cc1,-16[16.7 µM]
CN1CCCCC(NC(=O)C(C)(C)C)C1=O (stereo unspecified),-5
Cc1ccc2cccc(OC(=O)c3cccnc3Oc3ccccc3)c2n1,15
C[C@@H]1CN([C@H](C)CO)C(=O)c2c(c3ccccc3n2C)-c2ccccc2CO[C@H]1CN(C)C,-18[16.7 µM]
O=C(C[C@@H]1C=C[C@@H](NC(=O)C2CCOCC2)[C@@H](CO)O1)Nc1nccs1,-19[16.7 µM]
O=C1N[C@@H](Cc2ccccc2)COCn2nncc2CC[C@@H]1Cc1ccccc1,-10[16.7 µM]
COCCNC(=O)C[C@@H]1CC[C@H]2[C@@H](COC[C@@H](O)CN2Cc2cccc(-c3ccncc3)c2)O1,21[16.7 µM]
CCC(=O)Nc1ccc2c(c1)C(=O)N(C)C[C@@H](OC)[C@H](C)CN(C(=O)CC)[C@@H](C)CO2,59*[16.7 µM]
C[C@@H]1CN([C@@H](C)CO)C(=O)c2cccc(NS(=O)(=O)c3ccc(F)cc3)c2O[C@H]1CN(C)Cc1ccc(Oc2ccccc2)cc1,-9[16.7 µM]
C[C@H]1CN([C@@H](C)CO)C(=O)c2cc(N(C)C)ccc2O[C@@H]1CN(C)Cc1ccc(C(=O)O)cc1,1[16.7 µM]
Cc1ccc(S(=O)(=O)Nc2ccc3c(c2)C(=O)N([C@@H](C)CO)C[C@H](C)[C@H](CN(C)C)OCCCC[C@@H](C)O3)cc1,4[16.7 µM]
Cc1noc(C)c1S(=O)(=O)Nc1ccc2c(c1)C(=O)N([C@H](C)CO)C[C@@H](C)[C@H](CN(C)Cc1ccc(C(F)(F)F)cc1)OCCCC[C@@H](C)O2,44[16.7 µM]

# The last 3 records of the part before lead into the next.
SMILES,HIV Env fusion
C[C@H]1CN([C@@H](C)CO)C(=O)c2cc(N(C)C)ccc2O[C@@H]1CN(C)Cc1ccc(C(=O)O)cc1,1[16.7 µM]
Cc1ccc(S(=O)(=O)Nc2ccc3c(c2)C(=O)N([C@@H](C)CO)C[C@H](C)[C@H](CN(C)C)OCCCC[C@@H](C)O3)cc1,4[16.7 µM]
Cc1noc(C)c1S(=O)(=O)Nc1ccc2c(c1)C(=O)N([C@H](C)CO)C[C@@H](C)[C@H](CN(C)Cc1ccc(C(F)(F)F)cc1)OCCCC[C@@H](C)O2,44[16.7 µM]
COc1ccc(S(=O)(=O)N(C)C[C@H]2OCCCC[C@@H](C)Oc3ccc(NS(=O)(=O)c4cn(C)cn4)cc3C(=O)N([C@@H](C)CO)C[C@@H]2C)cc1,0[16.7 µM]
CC(=O)N1C[C@@H](CO)[C@@H](N(C)C(=O)C(C)(C)C)C[C@H]1c1ccccc1Br,-7
COC(=O)C[C@@H]1C[C@H]2c3cc(NC(=O)NC4CCCC4)ccc3O[C@H]2[C@@H](CO)O1,-3[16.7 µM]
CCCN1[C@H](C(=O)NCCCN2CCOCC2)[C@@H](CO)[C@@H]2Cn3c(ccc(-c4ccncc4)c3=O)[C@@H]21,-4[16.7 µM]
CN1CCN(C(=O)c2cc3c(c(-c4cccc(-c5ccc(C#N)cc5)c4)n2)[C@H](CCO)N([S@@](=O)C(C)(C)C)C3)CC1,-6[16.7 µM]
CCCNC(=O)Nc1ccc2c(c1)C(=O)N(C)C[C@@H](OC)[C@H](C)CN(C(=O)c1ccccc1F)[C@@H](C)CO2,-6[16.7 µM]
COc1cccc(S(=O)(=O)Nc2ccc3c(c2)[C@@H]2C[C@H](CC(=O)NCc4ccc(Cl)cc4)O[C@H](CO)[C@@H]2O3)c1,-2[16.7 µM]
CC(C)NC(=O)Nc1ccc2c(c1)C(=O)N([C@H](C)CO)C[C@H](C)[C@@H](CN(C)CC1CCCCC1)OCCCC[C@@H](C)O2,4[16.7 µM]
CC(=O)N1Cc2cc(C(=O)NCc3cccc(F)c3)nc(-c3cccc(C4=CCCC4)c3)c2[C@@H]1CCO,-6[16.7 µM]
CO[C@@H]1CN(C)C(=O)c2ccc(NC(=O)c3nc4ccccc4s3)cc2OC[C@H](C)N(Cc2cccnc2)C[C@@H]1C,-23[16.7 µM]

# The list is partial; count on the stated rates, not on these rows.
